# Compound activity from PubChem BioAssay.
# ugtP null kill: kills S. aureus RN4220 lacking UgtP; S. aureus RN4220 ugtP deletion, OD600 growth, 16 h; some inactives read as strong as hits; growth inhibition, % (test concentration not listed); 0.54% of 330,000 active;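 active means z-score under -3 and OD600 up to 0.15 on both plates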;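 further: plate controls were untreated wells for no effect and antibiotic for full effect; wells of about 80 µL received 100 nL stock; the first replicate is given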
# PrP 5UTR inh: suppresses PrP 5' UTR mRNA reporter expression | 0.35% of 340,000 active | cell-based PrP 5' UTR mRNA reporter, plate reader | AID 488862 | inhibition, % (concentration not given with the values);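 active means every replicate at 50% or more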;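 further: 0 = median of the neutral control wells; tested in H4 reporter cells; numbers are from one replicate; inactives centre near -14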
# Sa RN4220 lethal: S. aureus RN4220 growth inhibition; OD600, 16 h; inhibition, % (concentration not given with the values); 0.33% of 330,000 active;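 active means z-score of -3 or lower and OD600 up to 0.18 on both plates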;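 further: plate controls were untreated cells for no effect and reference antibiotic for full effect; stock transfer was 100 nL into about 80 µL; one replicate is shown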
# Mtb hypoxia inh: Mtb hypoxia fluorescent reporter inhibition. 0.1% of 300,000 active. M. tuberculosis hypoxia-regulated fluorescent reporter, fluorescence. fluorescence inhibition, % (concentration not given with the values);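 active means 35 to 45% if threefold the growth effect, above 45% if 1.5-fold the growth effect; inactive means the rest, general growth blockers included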;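 further: wells of about 50 µL received 100 nL stock; 0% = vehicle wells and 100% = reference inhibitor wells; whole bacteria with a GFP reporter of the hypoxia response; strong numbers were not always called active; many hits fall short of the cut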
# BJeLR viability: BJeLR cell viability loss; inhibition, % (concentration not given with the values); 0.17% of 300,000 active; AID 1554; BJeLR (HRASV12) viability, CellTiter-Glo ATP luminescence, 48 h; reference of the scale not given here;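 active means replicate mean above 50%; inconclusive means above 50% but judged a plate artefact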;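 further: 50 nL library stock added to about 25 µL; numbers are from one replicate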
# Autofluor counter: flagged as autofluorescent in microsphere protease counterscreen; compound autofluorescence counterscreen, microsphere flow cytometry; hits give high values; 3.1% of 360,000 active; fluorescence intensity (concentration not given with the values);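 active means at least 3 SD above the mean of all compounds, about 16000 in these data; inconclusive means too few beads counted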;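 further: 100 nL of 1 mM stock went into each well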
# Mtb hypoxia inh growth: also measured in Mtb hypoxia inh; calls as there; growth inhibition, %; measured here: M. tuberculosis growth (absorbance);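 0% = vehicle and 100% = reference antibiotic; read after six days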
# * hit, by the source's call; ? = inconclusive; / = no result given.
# Below each compound – ugtP null kill	PrP 5UTR inh	Sa RN4220 lethal	Mtb hypoxia inh	Mtb hypoxia inh growth	BJeLR viability	Autofluor counter
CN(C(=O)CSc1nc2ccccc2n1CCc1ccccc1)C1CCS(=O)(=O)C1 (configuration not stated)
 : 2	-5	6.3	6	0	-7	3915
CCOC(=O)N1CCC(N2C(=O)c3ccccc3C2Nc2ccccc2C)CC1 (configuration not stated)
 : -1	-24	0.4	-4	-1	2	5301
CC(=O)Nc1cccc(OCC(=O)/C=C2\N(C)c3ccccc3C2(C)C)c1
 : 2	-31	3.8	4	2	10	3791
O=C1C(c2ccc(F)cc2)N(CC2COc3ccccc3O2)C(=O)CN1C1CCCCC1 (configuration not stated)
 : 14	-17	-0.1	1	4	-7	10837
COc1ccccc1CNC(=O)COC(=O)c1cccs1
 : 2	-26	4.0	-3	9	/	3740
COc1ccc2c(c1)sc(=N)n2CC(=O)Nc1cc(C)cc(C)c1
 : 10	-16	6.6	-8	5	8	4967
O=C(O)c1ccccc1NC(=O)N1C[C@H]2C[C@@H](C1)c1cccc(=O)n1C2
 : -6	44	8.8	/	/	-3	5311
Cc1cc(=O)nc2c3ccccc3n(C(C)C(=O)NCCC(C)C)n12 (configuration not stated)
 : 6	9	2.0	7	9	-7	3458
Fc1ccc(NC(=S)N2CCCc3ccccc32)cc1
 : -1	-21	10.0	9	6	0	2799
CCn1c2ccccc2c2cc(NC(=O)N3CCOCC3)ccc21
 : -11	-55	-0.2	/	/	1	2753
COCCn1c(SC(C)C(=O)Nc2ccc3c(c2)OCCO3)nc2ccccc2c1=O (configuration not stated)
 : -5	-6	-2.6	3	1	4	4139
Cc1ccc2c(c1)N(Cc1ccncc1)C(=O)C(C)O2 (configuration not stated)
 : 3	-4	6.1	9	10	1	22957*
O=C(NN=Cc1ccncc1)c1cnccn1
 : 4	/	2.0	9	-1	/	/
COC(=O)c1sccc1NC(=O)Nc1cccc(C(C)=O)c1
 : 1	-22	7.1	12	6	/	3246
COc1cc(CN2CCNC(=O)C2CC(=O)N(C)CCCN2CCOCC2)cc(OC)c1 (configuration not stated)
 : -2	-10	-1.6	1	-2	2	5133

# Below each compound – ugtP null kill	PrP 5UTR inh	Sa RN4220 lethal	Mtb hypoxia inh	Mtb hypoxia inh growth	BJeLR viability	Autofluor counter
Brc1ccccc1OCCN1CCCC1
 : 2	-37	4.6	16	7	-10	5756
CCOC(=O)c1c(C)[nH]c(C(=O)CN2C(=O)NC(C)(C)C2=O)c1C
 : 12	-16	-0.1	6	12	/	6532
CCOc1ccc(NC(=O)CC)cc1
 : -2	/	1.1	16	1	5	/
CN1C(=O)N(C)C2(c3ccccc3)Nn3c(sc(=Cc4ccco4)c3=O)=NC12c1ccccc1 (configuration not stated)
 : 8	/	3.5	2	4	/	/
COc1ccc(C(=O)NCCn2ccc3ccccc32)cc1OC
 : 3	10	6.3	2	8	-3	5089
CCOc1ccc(/C=C/C(=O)Nc2ccc3[nH]c(=O)[nH]c3c2)cc1
 : /	-16	/	/	/	-16	2016
Cn1c(SCC(=O)NCC2CCCO2)nnc1-c1cccc(NC(=O)c2ccccc2F)c1 (configuration not stated)
 : 3	-9	7.3	8	1	4	4400
O=C(CCN1C(=O)c2cccc3cccc(c23)C1=O)NCc1cccnc1
 : 0	4	3.9	4	-5	1	2573
CCCN1C(=O)c2ccccc2NC1c1ccc(C)cc1 (configuration not stated)
 : 6	-15	1.4	-3	-1	-8	3432
O=C(COC(=O)/C=C/c1cccc(C(F)(F)F)c1)NC1CCS(=O)(=O)C1 (configuration not stated)
 : 3	-15	2.6	3	-1	/	4051
COCCn1c(=O)[nH]c2cc(C(=O)N3CCN(c4cccc(C(F)(F)F)c4)CC3)ccc2c1=O
 : -1	-13	1.8	0	4	6	4440
COc1cc(CNC2CCCCCCC2)cc(Cl)c1OC
 : 0	-34	-4.0	-11	2	-4	3623
CCOC(=O)N1CCC(N(CCN(C)C)C(=S)Nc2ccc(OCC)cc2)CC1
 : 4	/	1.0	0	1	-3	/
OCCN1CCN(c2nc(N3CCCCC3)nc(N3CCCCC3)n2)CC1
 : 13	-16	3.5	6	9	1	5155
O=C(COc1ccccc1)N[C@@H]1c2ccccc2CC[C@@H]1OCc1ccccc1
 : -1	1	-1.7	5	5	/	3472

# Below each compound – ugtP null kill	PrP 5UTR inh	Sa RN4220 lethal	Mtb hypoxia inh	Mtb hypoxia inh growth	BJeLR viability	Autofluor counter
C=C(C)COc1cc2oc(=O)c(CC(=O)N3C[C@H]4C[C@@H](C3)c3cccc(=O)n3C4)c(C)c2cc1Cl
 : 13	-9	2.8	/	/	8	5802
CCCn1nnc(NC(=O)COc2ccc(Cl)cc2)n1
 : 2	-17	-3.1	/	/	-7	3411
CC(=O)Nc1ccc(NC(=O)C(C)OC(=O)CNS(=O)(=O)/C=C/c2ccc(C)cc2)cc1 (configuration not stated)
 : 5	-14	1.1	6	-3	4	?
CCc1nnc(NC(=O)c2ccc(S(=O)(=O)N3CCCC3)cc2)s1
 : 10	-25	2.5	-3	3	-3	3406
COc1ccc(-c2nnnn2C(C)C)cc1
 : 1	14	1.4	18	-5	2	3230
CC(CCc1ccccc1)NC(=O)COC(=O)CC1CC2CCC1C2 (configuration not stated)
 : 7	-27	-0.8	12	11	5	2165
CCOC(=O)c1c(NC(=O)Cn2nc([N+](=O)[O-])c(Br)c2C)sc2c1CCC(C)C2 (configuration not stated)
 : -6	-8	1.2	-1	7	-6	10352
COC(=O)/C(=C\c1ccc([N+](=O)[O-])o1)NC(=O)c1ccccc1
 : 38	-37	33	/	/	0	4554
Cn1cc(C(=O)NCc2cccnc2)c(=O)c2cc(S(=O)(=O)N3CCCCCC3)ccc21
 : 0	/	1.4	17	-2	0	/
OC(c1ccccc1)c1nccn1Cc1ccccc1 (configuration not stated)
 : -7	-7	3.4	-12	-3	-6	3155
O=C(Cc1cccc2ccccc12)N1CC[C@@]2(O)CCCC[C@H]2C1
 : -5	-11	2.3	8	-2	8	5192
Oc1ccccc1CNc1ccc(OC(F)(F)F)cc1
 : -5	-60	-0.6	6	-4	-8	4476
COC(=O)c1cc(S(=O)(=O)NCC2CCN(Cc3ccccc3F)CC2)c[nH]1
 : -1	-22	0.1	-1	-10	6	5860
CC1=NNC(=O)C1CC(=O)N/N=C(\C)c1ccco1 (configuration not stated)
 : /	-21	/	/	/	6	6386
O=C(O)c1cccc(Cn2cc(Br)cn2)c1
 : 7	-6	6.1	4	-2	-7	4766

# Below each compound – ugtP null kill	PrP 5UTR inh	Sa RN4220 lethal	Mtb hypoxia inh	Mtb hypoxia inh growth	BJeLR viability	Autofluor counter
Cc1cccn2c(=O)c(/C=C(\C#N)C(=O)NC3CCS(=O)(=O)C3)c(Oc3ccc(F)cc3)nc12 (configuration not stated)
 : 4	-16	5.5	7	-1	9	3357
Cc1nnc(SCC(=O)NC2CCCC(C)C2C)n1N (configuration not stated)
 : 9	-3	3.0	4	-8	/	4103
COc1cc(C(=O)NC(=S)NCc2ccco2)cc(OC)c1OC
 : 3	1	2.8	7	7	7	9787
Fc1ccc(-c2[nH]ncc2CN2CCN(c3ccc(F)cc3)CC2)cc1
 : -1	-11	2.0	5	3	-10	6017
Nc1ccccc1C(=O)NCCCN1CCOCC1
 : 17	/	1.9	9	2	2	3809
Cc1ccc(NC2=Nc3ccccc3CS2)cc1
 : -3	-71	-14	23	-18	18	3584
O=C(NCCC1CCCCN1S(=O)(=O)c1ccc(Cl)cc1)C(=O)NCc1cccnc1 (configuration not stated)
 : 2	0	-0.5	-2	11	-4	?
O=C(CSc1ncccn1)N/N=C/c1cccc([N+](=O)[O-])c1
 : /	-28	/	/	/	3	8334
C=CC[C@]12CCc3ccccc3C1N(c1ccc(C(=O)OCC)cc1)C2=O (some centres not stated)
 : 9	-9	2.2	15	13	/	3055
COc1ccc(N=Cc2c(O)c3ccccc3oc2=O)cc1
 : 7	-9	-1.0	6	4	-12	2547
COc1ccccc1NC(=O)COc1ccc(C(=O)OCC(=O)NC(C)(C)C)cc1OC
 : -1	-18	-0.6	-3	2	1	5859
O=C(NCCc1ccccc1)c1ccc(CS(=O)Cc2cccc(Cl)c2)o1 (configuration not stated)
 : 87*	-15	-5.5	4	2	-10	5481
COc1ccc(C)cc1NC(=O)Nn1cnnc1
 : 10	-16	1.7	-1	-13	1	9212
Cc1cnc(C(=O)OCC(=O)c2ccc(-c3ccccc3)cc2)cn1
 : 1	-9	7.5	-14	-10	-1	/
Cc1oc(C(C)(C)C)cc1C(=O)NC1CCN(Cc2ccccc2)CC1
 : 7	12	2.9	12	8	-2	/

# Below each compound – ugtP null kill	PrP 5UTR inh	Sa RN4220 lethal	Mtb hypoxia inh	Mtb hypoxia inh growth	BJeLR viability	Autofluor counter
CCOc1cc(C=NO)ccc1OCC(=O)Nc1cccc(C)c1
 : 1	/	4.1	8	8	/	/
O=C(NCCc1ccccc1)C1CC1
 : 4	4	1.1	-1	2	-7	3297
CN(C)c1nc(SCC(=O)Nc2ccccc2)nc(N2CCOCC2)n1
 : 3	-19	2.0	5	7	8	4128
CCn1ncc(Br)c1C(=O)Nc1nccs1
 : -2	-22	-2.3	8	-1	15	6801
CCOc1ccc(S(=O)(=O)N2CCOCC2)cc1NC(=O)CN1C(=O)NC2(CCCCC2)C1=O
 : -7	-11	-1.5	-5	-4	/	4195
Cc1cc[n+](CC(=O)Nc2cc(C(F)(F)F)ccc2Cl)cc1
 : 2	-27	6.0	5	-3	1	11373
O=c1[nH]c(/C=C/c2ccc(OC(F)F)cc2)nc2c1cnn2-c1ccccc1
 : 1	-13	-4.1	0	0	2	2184
O=C(COC(=O)c1ccc[nH]c1=O)NC1CCCc2ccccc21 (configuration not stated)
 : 6	-22	1.1	10	7	-1	?
Cc1c(C(=O)Nc2nnc(SCc3ccccc3Cl)s2)cccc1[N+](=O)[O-]
 : -4	-12	4.9	6	-3	-17	7943
Cc1nc2c(Br)c3nc(C(F)(F)F)[nH]c3c(Br)c2[nH]1
 : -1	-12	3.6	4	1	-12	3116
Cc1ccc(CNc2ccc(S(=O)(=O)N3CCOCC3)cc2[N+](=O)[O-])cc1
 : -7	-63	-0.2	2	9	12	1921
O=C(CSc1nc2ccc(NC(=O)CSc3nnnn3-c3ccccc3)cc2s1)Nc1ccccc1
 : -12	-16	6.7	1	-3	7	9176
Cc1ccc(NC(=O)NCC(c2ccccc2)N(C)C)cc1 (configuration not stated)
 : 2	-34	0.5	-1	-6	-10	3302
CN(C)/C=C/C(=O)/C=C/c1ccc(Cl)cc1
 : /	-63	/	/	/	1	4740
CCOC(=O)c1cnn(Cc2ccccc2)c1N
 : 0	-7	2.9	6	11	8	10506

# A second format for two compounds above.
Compound: CCOc1cc(C=NO)ccc1OCC(=O)Nc1cccc(C)c1
  ugtP null kill: 1 | PrP 5UTR inh: / | Sa RN4220 lethal: 4.1 | Mtb hypoxia inh: 8 | Mtb hypoxia inh growth: 8 | BJeLR viability: / | Autofluor counter: /
Compound: O=C(NCCc1ccccc1)C1CC1
  ugtP null kill: 4 | PrP 5UTR inh: 4 | Sa RN4220 lethal: 1.1 | Mtb hypoxia inh: -1 | Mtb hypoxia inh growth: 2 | BJeLR viability: -7 | Autofluor counter: 3297

# Carrying on:
# Below each compound – ugtP null kill	PrP 5UTR inh	Sa RN4220 lethal	Mtb hypoxia inh	Mtb hypoxia inh growth	BJeLR viability	Autofluor counter
C=CCn1c(O)c(C(C)=NCCO)c(=O)[nH]c1=O
 : -5	-10	0.8	4	9	7	10207
CC1Cc2ccccc2N1Cc1nc2cc(C(F)(F)F)ccc2c(=O)[nH]1 (configuration not stated)
 : -11	-9	2.5	/	/	-2	2439
CCC1CCCCN1S(=O)(=O)c1ccc(NC(=O)CSc2ncccc2C(=O)O)cc1 (configuration not stated)
 : 2	-10	-1.7	-8	-17	9	6749
COc1ccc(OCCNC2CCCC2)cc1
 : 6	-18	4.8	6	5	0	4508
CCCn1c(=O)c2c(C(=O)OCC)cc(-c3ccco3)nc2n(CCC)c1=O
 : 20	-2	4.9	-2	2	-1	7964
O=C(NCc1ccco1)C(=O)N1CCCC1
 : 9	2	2.4	2	17	8	6465
CCOC1OC(C(=O)O)=CC(c2ccc(Br)cc2)C1CCCO (configuration not stated)
 : -6	/	3.7	11	11	/	/
CCOc1ccc(NS(=O)(=O)c2ccc(NS(=O)(=O)c3ccc(SC)cc3)cc2)cc1
 : 37	2	-10	2	2	/	8102
CC1=CC(=O)C=C(C)C1=NOc1ccc([N+](=O)[O-])cc1
 : 1	-4	-0.4	3	6	2	3268
